LANA-H2A inh: blocks KSHV LANA binding to histone H2A/H2B; Q9QR71; cell-free LANA-H2A/H2B peptide, fluorescence polarization; inhibition, % (test concentration not listed); 320,000 tested, 0.6% active; AID 2629; in the data active means inhibition mostly above about 10%, no sharp cut-off; inactive means mostly below about 6.7%;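 further: stock transfer was 7.5 nL into about 10 µL; 0% = median of vehicle wells and 100% = median of positive control wells; one replicate is shown; the record names a cut of 25% in any replicate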
A1 inh: inhibitors of the anti-apoptotic protein A1, read as caspase activation; caspase activation, % (test concentration not listed); MEF A1-2A-BIM cells, Caspase-Glo 3/7 luminescence, 3 h; percent of clofoctol response, vehicle zero; AID 2462; 330,000 tested, 0.066% active;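 active means over half of replicate activation scores above 10%, or exactly half above 10 with the replicate mean above 10; inconclusive means replicate mean below 10 yet half the replicates above 10; inactive means over half of replicates below 10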;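 further: wells of about 30 µL received 50 nL stock; many hits fall short of the cut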
AF4-AF9 inh: blocks AF4 peptide binding to human AF9; AID 651704; inhibition, % at 10 µM; AlphaScreen, biotin-AF4 peptide binding to FLAG-AF9; P42568; 350,000 tested, 0.47% active;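 active means every replicate reaching a set inhibition limit, whatever the replicate mean, cut at about 25% in these data; inconclusive means mean inhibition reaches that limit but some replicates miss it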;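 further: 0% = plate neutral control median and 100% = total signal loss; the record names both 10 and 1 µM as test concentration; the first replicate is given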
Target sequence (P42568 whole entry, looked up): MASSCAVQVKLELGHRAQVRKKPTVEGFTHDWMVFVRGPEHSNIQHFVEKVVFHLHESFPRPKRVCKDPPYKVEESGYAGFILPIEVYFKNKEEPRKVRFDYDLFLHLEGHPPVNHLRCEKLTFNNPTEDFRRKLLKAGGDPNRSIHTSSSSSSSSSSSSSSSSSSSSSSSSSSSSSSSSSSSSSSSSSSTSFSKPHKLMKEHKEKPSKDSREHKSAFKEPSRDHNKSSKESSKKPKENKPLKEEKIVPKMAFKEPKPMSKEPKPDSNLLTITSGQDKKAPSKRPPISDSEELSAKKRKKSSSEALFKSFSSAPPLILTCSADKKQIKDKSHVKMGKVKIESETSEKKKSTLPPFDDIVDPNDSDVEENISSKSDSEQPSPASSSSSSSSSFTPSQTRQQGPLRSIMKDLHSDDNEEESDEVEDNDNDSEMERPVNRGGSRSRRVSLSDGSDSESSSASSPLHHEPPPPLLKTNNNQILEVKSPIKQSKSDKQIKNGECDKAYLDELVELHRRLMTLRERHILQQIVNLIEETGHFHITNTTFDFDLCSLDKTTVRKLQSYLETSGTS
T cruzi repl: blocks replication of Trypanosoma cruzi. T. cruzi beta-gal in NIH3T3, luminescence, 90 h. inhibition, % (no concentration beside the values). 300,000 tested, 1.4% active;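 active means mean inhibition across valid replicates above about 55%, limit read from the data; inconclusive means mean below that limit but half or more replicates reach it; inactive means mean below it, under half of replicates reach it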;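 further: signal also drops with host cell toxicity which is not excluded here; 0% = plate median of DMSO wells and 100% = zero luminescence signal; higher percent means less beta-gal luminescence so fewer parasites; stock transfer was 50 nL into about 50 µL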
Beta apoptosis: blocks beta cell apoptosis. INS-1E cytokine-induced death, ATP luminescence, 48 h; percent of positive-control rescue, neutral wells zero. AID 435005. protection from apoptosis, % (test concentration not listed). 300,000 tested, 0.8% active;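 active means all replicates at 75% or more, or half of them and the mean; inconclusive means half reach 75% but not the mean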;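 further: 0% = cytokine-treated negative control wells and 100% = positive control rescue; higher means more ATP so stronger rescue from cytokine killing; wells of about 40 µL received 100 nL stock; the first replicate is given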
Vif A3G: HIV-1 Vif–A3G interaction blockers – biochemical, TR-FRET, GST-Vif 1-94, biotin-A3G peptide, dose response retest, primary screen (AID 1117319) | TR-FRET GST-Vif / biotin-A3G peptide binding; higher % means a stronger effect; test concentration not given here; strong numbers were not always called active | one-dose inhibition, %; IC50 in µM for titrated hits | 260,000 tested, 0.57% active;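 active means above the screen mean plus three standard deviations and confirmed in dose response; inconclusive means results disagree or hit not tested in dose response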;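 further: Vif residues 1-94 fused to GST binding biotinylated APOBEC3G peptide 110-148; 0% = full assay without inhibitor and 100% = GST in place of GST-Vif; retest series ran down from 100 µM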
RanGTP-Imp inh: disruptors of Ran-importin-beta complex formation – biochemical, FRET, CFP-Ran, YFP-importin-beta, homogeneous, primary screen; inhibition, % (concentration not given with the values); 300,000 tested, 1.1% active; cell-free CFP-Ran/YFP-importin-beta FRET ratio; AID 2216;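 active means most replicates above 15%; inconclusive means exactly half above 15%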;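 further: 0% = DMSO wells and 100% = Ran loaded with GDP instead of GTP; wells of about 40 µL received 100 nL stock; the first replicate is given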
Calb FLC: affects C. albicans growth with fluconazole; C. albicans CaCi-2 (fluconazole-resistant clinical isolate) + fluconazole, Alamar Blue growth, 48 h; growth inhibition, % (concentration not given with the values); 300,000 tested, 0.57% active;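 active means most replicates above 75%; inconclusive means exactly half above 75%; inactive means most below 75%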;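 further: all wells also contain fluconazole at 8 µg/ml as a sub-toxic cotreatment; 0% = median of DMSO wells and 100% = median of geldanamycin control wells; wells of about 8 µL received 7.5 nL stock; the first replicate is given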
Numbers without * were called inactive; ? = inconclusive; . = no result given.

SMILES	LANA-H2A inh	A1 inh	AF4-AF9 inh	T cruzi repl	Beta apoptosis	Vif A3G	RanGTP-Imp inh	Calb FLC
CCOC(=O)c1cc(-c2cccs2)nc2c1c(C)nn2-c1ccccn1	5.2	0.4	-1.8	7	65	12%	4.1	0
O=C(CNC(=O)c1ccccc1)NCC(=O)OCc1ccc(Cl)cc1	1.3	-0.4	.	-20	-7	1%	-1.3	-3
CC(C)CNC(=O)COC(=O)c1ccc([N+](=O)[O-])cc1Cl	.	-0.5	.	-14	-2	4%	1.6	23
O=C(NN=C1CCCC1)C1COc2ccccc2O1 (stereo not drawn)	-3.9	-0.4	2.1	-13	3	10%	-4.0	7
O=C(N/N=C\c1cn[nH]c1-c1ccc(Cl)cc1)c1cccs1	3.8	0.2	5.2	15	1	5%	1.8	1
COc1ccc(CCNC(=O)Nc2cccs2)c(OC)c1	1.6	-0.8	1.9	-11	-9	1%	7.3	0
Cc1ccc(SCC(=O)NNC(=O)c2ccccc2)cc1C	13	0.2	-2.3	-14	-2	.	2.0	-15
CC(=O)N1CCCc2cc(S(=O)(=O)CCC(=O)Nc3cccc(C)c3C)ccc21	-0.9	-0.5	0.5	11	-4	.	-1.6	3
COc1ccc(S(=O)(=O)N2CCN(S(=O)(=O)c3ccc(C(F)(F)F)cc3)CC2)cc1C	-1.3	0.7	.	-10	-5	27%	9.2	9
COc1ccc(OC)c(N(CC(=O)N2CCC(C)CC2)S(=O)(=O)c2ccccc2)c1	.	.	.	12	.	0%	-1.1	-18
COc1ccc(COC(=O)c2cccc(S(=O)(=O)N3CCN(C(C)=O)CC3)c2)cc1F	-3.6	-0.5	0.8	3	13	9%	-2.0	-4
COc1ccc([C@H]2C=C(C(=O)O)O[C@@H](OCc3ccc(CO)cc3)C2)cc1	-1.6	-0.6	-23	-3	0	-7%	7.1	-1
Cc1nc(CSc2nc3[nH]ncc3c(=O)n2-c2ccccc2)cs1	-0.8	1.3	.	-20	-15	0%	-1.3	3
COCCn1c(SCC(=O)c2ccccc2)nc2ccccc2c1=O	6.3	0.3	-1.4	21	-6	-8%	5.1	-1
O=C(COc1ccc(/C=N/NS(=O)(=O)c2ccccc2)cc1)Nc1cccc(Cl)c1	-4.5	-0.5	.	5	-8	-3%	3.3	7
CN(C(=O)c1ccco1)c1nc(-c2ccc(Cl)cc2)cs1	-2.7	?	-3.0	6	2	-5%	-3.0	-16
CCCN(CCC)C(=O)c1c(NC(=O)CC)sc2c1CCCCC2	1.3	1.0	.	-5	.	.	-2.5	-4
CC(=O)N1CCN(C(=O)c2ccc(S(=O)(=O)Nc3ccccc3Cl)cc2)CC1	1.4	-0.6	6.6	-6	0	-6%	-1.8	12
C=CC[C@H]1CC(C)=C[C@H](CC=C)N1	4.0	0.3	0.9	-7	.	-9%	-1.4	-10
O=C(Cn1nc(C(F)(F)F)c2c1CCCC2)N1CCOCC1	2.5	-1.1	0.5	-9	.	4%	0.9	-8
Cc1nn(CC(=O)NCCCN2CCN(Cc3ccccc3)CC2)c(=O)c2cc(-c3ccccc3)nn12	-4.0	-1.6	2.4	3	10	-3%	0.1	-2
Cc1ccc(-n2nc(-c3ccc(N)cc3)cc2N)cc1	3.3	-0.1	5.6	-9	-6	33µM*	-2.5	4
O=C(Nc1ccccc1C(=O)N1CCOCC1)c1ccc([N+](=O)[O-])cc1	-1.9	-0.2	-3.1	0	6	-5%	-3.8	-8
CC(=O)c1cccc(NC(=O)NCc2ccccn2)c1	8.1	-0.4	9.1	-14	0	9%	1.2	4
CCOc1cc(/C=C2/N=C(c3ccc4c(c3)OCO4)OC2=O)ccc1OC(C)=O	-11	1.7	1.3	.	-6	-2%	.	.
CCOc1ccc(NC(=S)Nc2ccccc2C2CC2)cc1	-0.8	-0.5	1.6	23	-2	?	1.1	11
CCOC(=O)/C=C1\SCC(=O)N1CC(=O)Nc1ccccc1OC(F)F	2.6	0.2	.	-3	11	2%	150*	-9
O=C(CN1C(=O)C2CCCCC2C1=O)N1CCN(c2ccccc2)CC1 (stereo not drawn)	-6.3	2.0	-3.1	9	.	11%	0.6	-23
Nc1cc(=O)nc(SCC(=O)Nc2ccccc2Cl)n1-c1ccccc1	-5.2	0.1	-3.5	10	-4	-1%	0.0	-9
C(=N\Nc1ccc(-n2ccnc2)nn1)/c1ccccc1	2.8	0.3	.	-4	-7	19%	-0.5	7

Sorted by length of the SMILES (lowest first): some entries from above
SMILES	LANA-H2A inh	A1 inh	AF4-AF9 inh	T cruzi repl	Beta apoptosis	Vif A3G	RanGTP-Imp inh	Calb FLC
CC(=O)c1cccc(NC(=O)NCc2ccccn2)c1	8.1	-0.4	9.1	-14	0	9%	1.2	4
C(=N\Nc1ccc(-n2ccnc2)nn1)/c1ccccc1	2.8	0.3	.	-4	-7	19%	-0.5	7
Nc1cc(=O)nc(SCC(=O)Nc2ccccc2Cl)n1-c1ccccc1	-5.2	0.1	-3.5	10	-4	-1%	0.0	-9
Cc1nn(CC(=O)NCCCN2CCN(Cc3ccccc3)CC2)c(=O)c2cc(-c3ccccc3)nn12	-4.0	-1.6	2.4	3	10	-3%	0.1	-2

(listing goes on)
SMILES	LANA-H2A inh	A1 inh	AF4-AF9 inh	T cruzi repl	Beta apoptosis	Vif A3G	RanGTP-Imp inh	Calb FLC
COc1ccc(C(=O)Nc2ccccc2C(=O)Nc2cccnc2)cc1	-4.3	-0.1	-1.3	12	12	.	-2.3	-1
COc1cc(C(=O)NNC(=O)c2nn(C)c(=O)c3ccccc23)cc(OC)c1OC	-0.7	-0.2	0.6	.	6	2%	.	.
Cc1cnc(NC(=O)c2cccs2)s1	4.0	0.6	-4.0	-2	-11	.	3.8	-1
O=C(NCCc1ccccc1)c1cccnc1N1CCCCCC1	2.9	0.4	-52	-6	-8	1%	4.2	10
Cc1ccc(Br)cc1S(=O)(=O)N1CCN(c2ccccc2)CC1	-1.5	0.2	.	.	5	3%	-0.3	0
CCCCNC(=O)CSc1nc2ccc(N3CCOCC3)cc2c(=O)n1CCc1ccccc1	-1.7	0.3	.	8	-4	28%	-2.1	49
COc1ccc(NC(=S)N(CCN2CCOCC2)Cc2cc3cc4c(cc3[nH]c2=O)OCCO4)cc1	2.3	-0.2	4.8	10	3	.	-6.6	-3
COc1ccc(Sc2ccc(/C=C3\C(=O)NN(c4ccccc4)C3=O)o2)cc1	0.7	0.3	.	3	-13	27%	1.0	28
Cc1ccc(C(=O)N/N=C/C2=Cc3ccccc3OC2C)cc1 (stereo not drawn)	-0.2	-0.9	10	5	5	13%	-3.8	38
C=CCN(C(=O)c1csnn1)C(C(=O)NC1CCCC1)c1ccc(OC)cc1 (stereo not drawn)	-0.4	0.1	-1.6	3	4	22%	3.5	9
CCC(CC)COC(=O)C1=C(C)NC(=O)NC1c1ccc(OC)cc1 (stereo not drawn)	-8.2	0.5	-1.8	16	-4	.	-1.8	11
Cc1ccc(C(=O)N2CCOCC2)cc1S(=O)(=O)N1CCCC1	5.8	1.1	-1.3	0	0	-1%	2.5	0
COc1ccc(/C(C)=N/NC(=O)C(NC(=O)c2ccccc2)c2n[nH]c(=O)c3ccccc23)c(OC)c1 (stereo not drawn)	-2.3	-1.9	1.4	1	-3	.	-0.9	6
OCC1(CC2CCCCO2)CCN(Cc2cccc(O)c2)CC1 (stereo not drawn)	1.3	-0.9	-1.4	-11	-8	.	-1.3	-7
CCc1ccc2c(CN3CCc4cc(OC)c(OC)cc4C3)cc(=O)oc2c1	-3.5	0.5	.	10	-6	.	9.5	-21
Cc1ccc(/C=C/C(=O)NCCc2ccccc2)o1	-3.4	0.4	-4.8	-22	-9	.	?	3
Cc1ccc(-n2ncc3c2CC(C)(C)CC3NC(=O)CCc2cccnc2)cc1 (stereo not drawn)	-12	0.1	-0.4	-4	5	-6%	2.7	49
O=C(O)/C=C/C(=O)NCCCc1ccccc1	1.6	0.5	-3.7	12	-3	3%	5.4	2
Cc1cc(OCC(=O)Nc2ccc(F)c(F)c2)nc(C(C)C)n1	3.0	1.0	8.1	-7	0	0%	-1.1	2
Cc1ccc(-n2c(C)nc3ccsc3c2=O)cc1	-6.0	0.2	0.4	-21	.	.	1.5	-5

Records listed above printed as active in Vif A3G:
SMILES	LANA-H2A inh	AF4-AF9 inh	Vif A3G	RanGTP-Imp inh
Cc1ccc(-n2nc(-c3ccc(N)cc3)cc2N)cc1	3.3	5.6	33µM*	-2.5

Further compounds:
SMILES	LANA-H2A inh	A1 inh	AF4-AF9 inh	T cruzi repl	Beta apoptosis	Vif A3G	RanGTP-Imp inh	Calb FLC
O=C(COC(=O)/C=C/c1ccc(Cl)cc1)NC(=O)NCc1ccccc1	-8.5	-0.4	-1.6	.	-1	.	.	.
COC(=O)CCS(=O)(=O)c1ccc(Cl)cc1	-5.6	0.5	.	-3	-1	-2%	-1.3	-7
COc1ccc2cc3c(N)nn(C(=O)Cc4c[nH]c5ccccc45)c3nc2c1	1.3	-1.0	14	7	-28	.	1.4	8
Cc1cc(C)c(-n2nnnc2SCC(=O)c2cccs2)c(C)c1	-0.4	0.5	.	-2	-2	7%	3.5	-8
CCNC(=S)Nc1ccc(S(=O)(=O)Nc2cc(C)nc(C)n2)cc1	-1.1	-1.6	-2.6	-12	-1	3%	5.4	-8
COc1ccc(CC/C(=N\O)C2(O)CCCCC2)cc1	-0.4	-0.7	.	-2	-3	1%	8.0	-24
CCCCCN(C(=O)CCC(=O)OCC(=O)Nc1cccc(SC)c1)c1c(N)n(CCCC)c(=O)[nH]c1=O	-3.1	0.5	-4.8	-6	-2	-1%	-2.5	6
COc1ccccc1CCC(=O)N(C)C1CCCN(Cc2ccccc2F)C1 (stereo not drawn)	5.8	0.2	-0.1	3	.	.	0.1	-2
O=C(Cn1[nH]c(=O)c2ccccc2c1=O)OCC(=O)N1CCc2ccccc2C1	-2.6	8.3*	.	-3	-2	-2%	-1.7	5
CCCCCCC[N+](CC)(CC)CCCCc1ccc(Cl)cc1	-1.2	0.2	-4.9	.	114*	.	.	.
COc1cc(SC)ccc1C(=O)Nc1ccccc1	3.2	-1.5	.	6	.	2%	-0.2	-3
COc1cccc(CNC(=O)CN2CCC(c3nc4ccc(C)cc4[nH]3)CC2)c1	-6.1	0.5	-1.3	55*	.	10%	0.5	14
Cc1onc(-c2ccccc2)c1C(=O)N1CCN(C)CC1	1.0	0.0	.	-4	.	2%	2.2	-3
CN(C)/C=N/c1nc2nccc(-c3ccc(Cl)cc3)n2n1	7.0	0.6	-1.4	-11	1	3%	1.3	-8
COc1ccc(CC(=O)O)cc1O	-0.7	-0.6	2.7	-11	-1	-3%	-4.5	-2
O=C(Nc1ccc(N2CCN(C(=O)c3ccccc3)CC2)cc1)c1ccc([N+](=O)[O-])o1	.	.	3.2	45	.	1%	5.3	3
COc1ccc(CCNC(=O)CSCc2ccc(F)cc2)cc1OC	-2.4	1.3	.	-6	-2	-8%	1.9	-5
COc1ccc(OC)c(C(=O)c2ccc(C(=O)N3CCN(Cc4csc(C)n4)CC3)cc2)c1	-4.3	0.2	6.9	4	7	1%	-0.6	21
CCCCN(C)CCN1C(=O)C2C(C(=O)Nc3ccc(Cl)cc3)C3C=CC2(O3)C1C(=O)NC1CCCCC1 (stereo not drawn)	-0.1	1.2	1.7	17	-4	.	1.7	-9

From PubChem BioAssay
